NPYLR7 agonist = agonists of mosquito NPYLR7 receptor, primary screen, cell-based, Aedes aegypti, calcium fluorescence, mosquito biting behavior; Aedes aegypti neuropeptide Y-like receptor 7 (NPYLR7); HEK293T NPYLR7/Galpha15, GCaMP6s calcium fluorescence; 0.15% of 270,000 active; activation, % at 10 µM; in the data active = activation above about 40%;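 note: 0% = vehicle and 100% = reference agonist at the receptor; some compounds past the cut are filed as inactive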
NPYLR7 agonist max-min = second read-out of NPYLR7 agonist, no call of its own (marks repeat the call); activation, %; measured here: Max-Min RFU normalised activation; some inactives read as strong as hits;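 span of the calcium signal over five minutes; 0% = vehicle and 100% = native peptide agonist; compound fluorescence can raise it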
* = called active by the depositor; & = joins results of further samples.

SMILES | NPYLR7 agonist | NPYLR7 agonist max-min
Cc1nc(NCc2ccccc2-n2cncn2)cc(C2CCNCC2)n1 | -5 | -12
NC(=NOC(=O)COc1ccc2ccccc2c1Br)c1cccnc1 | -8 | -18
COc1c(C)cc(-c2nccc(C)n2)cc1C | -1 | 0
CC(CCc1c[nH]c2ccccc12)NC1CCN(C(=O)C(C)C)CC1 (stereo not drawn) | 6 | 5
C=CCOc1ccc(CNc2nn[nH]n2)cc1OCC | 0 | -1
COc1ccc(-c2nnc(SCC(=O)N/N=C\c3ccccc3C(F)(F)F)n2-c2ccccc2)cc1OC | 12 | 16
COc1ccc(C(=O)N(CC(=O)Nc2nc(CC(=O)NC(C)C(C)C)cs2)C(C)C)cc1 (stereo not drawn) | 27 | 32
CCOC(=O)CN1CCN(c2ccccc2CC)C(=O)C1C (stereo not drawn) | 13 | 16
Cc1ccc2nc(CC#N)[nH]c(=O)c2c1 | 3 | 1
O=C(c1cc(Cl)c2c(c1)OCCCO2)N1CCN(S(=O)(=O)c2ccccc2)CC1 | 2 | 1
O=C1C2CC=CCC2C(=O)N1c1ccc(F)cc1Cl (stereo not drawn) | -12 | -14
N#CC(=Cc1ccccc1)S(=O)(=O)c1cc(Br)ccc1Br | -2 | 6
COc1ccc(F)c(-c2cncc(C(=O)N3CCCCC3)n2)c1 | 0 | -5
CCN(CC(=O)N1N=C(c2cccc(OC)c2)CC1c1ccc(Cl)cc1)C1CCCCC1 (stereo not drawn) | 19 | 12
Clc1ccc(OCCOCCOc2ccc(Cl)cc2)cc1 | 1 | -2
CCOCCCNC(=O)c1cc(NC(=O)c2ccc([N+](=O)[O-])cc2Cl)ccc1N1CCN(c2ccccc2OC)CC1 | 13 | 12
CCOc1ccc(NC(=O)Cn2cc(-c3ccccc3)c3ncn(CCOC)c(=O)c32)cc1 | 3 | 3
CCN(CC)c1ccc2cc(-c3nnc(-c4ccc(C)cc4)o3)c(=O)oc2c1 | -2 | -3
CC1CCc2c(sc3nc(CN(Cc4ccccc4)CC(O)COCc4ccccc4)[nH]c(=O)c23)C1 (stereo not drawn) | -8 | -3
CNC(=O)CN(C(=O)CC1CCCC1)[C@H]1C[C@H]2CCOC[C@H]2C1 | 2 | 12
O=S(=O)(CCC1CCCO1)NCCc1ccccc1Cl (stereo not drawn) | -1 | 0
O=C(Nc1ccc2c(c1)OCO2)C(C1CCCC1)N1CCN(C(=O)c2ccc(F)cc2F)CC1 (stereo not drawn) | -6 | 2
Cc1cc(C)cc(NC(=O)CSc2nc(=O)n3cc(Cl)ccc3n2)c1 | 2 | 0
Cc1ccccc1N1CCN(C2CCCN(C(=O)CC3=CCCCC3)C2)CC1 (stereo not drawn) | -6 | -7
COc1cc(CSc2nc(=O)n3cc(C)ccc3n2)cc(OC)c1 | 10 | 8
Cc1cc(C)cc(-n2ccn3c(C(C)C)nnc3c2=O)c1 | -2 | -8
Cc1cc(C)c2nc(SCCC#N)nc(C)c2c1 | 0 | -2
CCN1CCN(c2c(CN(C3CC3)S(=O)(=O)c3c(C)cc(C)cc3C)c(C)nn2-c2cccc(F)c2)CC1 | 17 | 17
CN(Cc1ccc(C(C)(C)C)cc1)Cc1cccc2ccccc12 | 0 | -8
O=C(O)CCNC(=O)c1ccc([N+](=O)[O-])o1 | 3 | 5
COCC(O)CNc1ccc(-n2nc(OC)nc2-c2ccc(C)cc2)cc1 (stereo not drawn) | -3 | 6
CCCc1nc(CNC(=O)c2cc3n(n2)CCCN(C(C)=O)C3)cs1 | 5 | -7
Cc1ccc(-n2c(=O)c3ccccc3n(CC(=O)NCc3ccco3)c2=O)cc1C | 27 | 37
Cc1cc(C(C)(C)C)cc(C)c1CCNC(=O)c1ccc(C(F)(F)F)[nH]c1=O | 7 | 7
COc1ccc(CCN(C)C2CCCN(C(=O)c3ocnc3C)C2)cc1OC (stereo not drawn) | 3 | 2
Cc1ncc(CN(C)C(=O)Nc2ccccc2N2CCCCCC2)s1 | -21 | -23
Cc1cccc(CSc2nnc(C(Cc3ccccc3)NC(=O)C(C)(C)CCl)n2-c2cc(Cl)ccc2C)c1 (stereo not drawn) | 18 | 18
CCOC(=O)C1=C(O)/C(=C\c2ccc(OC)cc2O)SC1=Nc1ccccc1C | 8 | 11
CC(N(C)S(=O)(=O)c1ccc(F)c(F)c1)C(C)(C)C (stereo not drawn) | -2 | -5
C=CCCOC(=O)N1CCC2(CC1)[C@@H](C(=O)OCC)[C@@H](O)C(=O)N2C(C)C | 3 | 10
C=CCNC(=S)Nc1cccc(NC(=S)NCC=C)c1 | -4 | -7
O=S(=O)(c1cc(F)cc(F)c1)N1CCN(C(c2ccccc2)c2ccc(F)cc2)CC1 (stereo not drawn) | 3 | 0
N#Cc1ccc(CON=C(N)c2ccccc2)cc1 | -10 | -13
CCn1nnc2c(SCC(=O)N(C)c3ccccc3)ncnc21 | 0 | 28
CCc1nc2ccc(C(=O)Nc3cc(-c4ccccc4)ccc3OC)cn2c1N(C)C(=O)Nc1ccccc1OC | 15 | 10
COC(=O)[C@@H]1C[C@H](NS(=O)(=O)c2c(C)cc(OC)c(C)c2C)CN1C | -7 | -6
CCc1ccc(C(=O)NCCNc2cc(-n3cccn3)ncn2)cc1 | -6 | -12
O=C1CC[C@@H](C(=O)N2CSC[C@H]2C(=O)O)N1 | -14&-3 | -18&2

An excerpt of these results, as a markdown table:
| SMILES | NPYLR7 agonist | NPYLR7 agonist max-min |
| --- | --- | --- |
| COc1ccc(-c2nnc(SCC(=O)N/N=C\c3ccccc3C(F)(F)F)n2-c2ccccc2)cc1OC | 12 | 16 |
| Cc1cc(C)cc(-n2ccn3c(C(C)C)nnc3c2=O)c1 | -2 | -8 |
| O=S(=O)(CCC1CCCO1)NCCc1ccccc1Cl (stereo not drawn) | -1 | 0 |
| CCn1nnc2c(SCC(=O)N(C)c3ccccc3)ncnc21 | 0 | 28 |
| Cc1cc(C)cc(NC(=O)CSc2nc(=O)n3cc(Cl)ccc3n2)c1 | 2 | 0 |

Profiles, quoted from the list. Values in the order: NPYLR7 agonist, NPYLR7 agonist max-min
`O=C1CC[C@@H](C(=O)N2CSC[C@H]2C(=O)O)N1` across the screens: -14&-3, -18&2
`CC(N(C)S(=O)(=O)c1ccc(F)c(F)c1)C(C)(C)C` (stereo not drawn) across the screens: -2, -5

Later entries.
SMILES | NPYLR7 agonist | NPYLR7 agonist max-min
O=C(NC(c1ccc(F)cc1)c1ccc2ccccc2n1)C1CCN(C(=O)N2CCCC2)CC1 (stereo not drawn) | -6 | -12
O=C(Nc1ccc(N2CCC(NC(c3ccncc3)c3ccc(Cl)cc3)CC2)cc1)C1CCCC1 (stereo not drawn) | 19 | 7
CN(Cc1ccccc1)C(=O)c1cc2c(c(S(N)(=O)=O)c1)CCC2 | -2&-25 | 0&-25
CCOC(=O)C1CCCN(C(=O)CC(c2ccc(Cl)cc2)c2cn(C)c3ccccc23)C1 (stereo not drawn) | 1 | 1
CCc1ccccc1NC(=O)Cn1[nH]c(=O)c2ccccc2c1=O | -2 | -1
O=C(CC1CCCCC1)NCCOc1ccc(-c2ccc(F)cc2)nn1 | -1 | -1
O=C(Nc1ccccn1)C1CCN(c2cccc(C(F)(F)F)n2)CC1 | 3 | 4
CC(c1ccc(S(N)(=O)=O)cc1)N(C)C(=S)NC1CC1 (stereo not drawn) | 0 | 15
CCCCS(=O)(=O)Cc1ccc(F)cc1 | -5 | 17
NC(=O)c1c(N)c(C(=O)c2ccc(Br)cc2)n2ccccc12 | -3 | -6
CC(C)OCCCNC(=O)CCCn1c(=O)[nH]c2cc(Cl)ccc2c1=O | -2 | -5
CCN1CCCC1C1CCCN1C(=O)c1c(C)nn(C)c1Cl (stereo not drawn) | -2 | -2
O=C(Nc1ccc(N2CCC(Cc3ccccc3)CC2)c(C(=O)NCC2CCCO2)c1)c1ccc(Br)cc1 (stereo not drawn) | 0 | 5
COc1ccc(CNC(C(=O)NC(N)=O)C(C)C)cc1OC (stereo not drawn) | -6 | -7
COCC(C)NC(=O)c1cc(-c2ccc(C)cc2)nc2c1c(C)nn2C1CCS(=O)(=O)C1 (stereo not drawn) | 1 | 7
CC(=O)c1ccc2c(c1)N(Cc1cc(C)on1)C(=O)C(C)S2 (stereo not drawn) | 0 | -4
CSc1ncc(CNCc2cccc(F)c2F)c(N2CCN(c3ccc(F)cc3)CC2)n1 | 9 | 12
O=C(NCCc1ccccc1Cl)N1CCC(OCC2CC2)CC1 | 6 | 5
CC1=NN(Cc2ccccc2)c2nc3c(c(=O)n(CCc4ccccc4)c(=O)n3C)n2C1 | 0 | 7
COCCN(Cc1c(-c2ccccc2)noc1N1CCCCC1C)C(=O)c1ccc(OC)cc1 (stereo not drawn) | 15 | 18
COc1cc(/C=C2/C(=O)N(c3ccc(C(=O)O)cc3)N=C2C)c([N+](=O)[O-])cc1OC | -2 | -8
COc1ccc(N2CCCn3c2nc2c3c(=O)n(CCC(C)C)c(=O)n2C)c(OC)c1 | 2 | -1
Cc1ccc(CN(CCC(=O)N2CCOCC2)CCc2ccccc2)s1 | 7 | 4
CS(=O)(=O)c1cccc(NC(=O)CCc2cccs2)c1 | 16 | 9

5 records drawn at random from those above:
SMILES | NPYLR7 agonist | NPYLR7 agonist max-min
Cc1ccc2nc(CC#N)[nH]c(=O)c2c1 | 3 | 1
COc1ccc(C(=O)N(CC(=O)Nc2nc(CC(=O)NC(C)C(C)C)cs2)C(C)C)cc1 (stereo not drawn) | 27 | 32
O=C(Nc1ccccn1)C1CCN(c2cccc(C(F)(F)F)n2)CC1 | 3 | 4
COc1ccc(F)c(-c2cncc(C(=O)N3CCCCC3)n2)c1 | 0 | -5
CCOC(=O)C1CCCN(C(=O)CC(c2ccc(Cl)cc2)c2cn(C)c3ccccc23)C1 (stereo not drawn) | 1 | 1

Going on with the list.
SMILES | NPYLR7 agonist | NPYLR7 agonist max-min
Fc1ccc(Cn2ccnc2CNC2CCCCC2)cc1F | 0 | -1
O=C(Nc1cccc(F)c1)c1ccc(CSc2nnc(-c3ccco3)n2-c2ccc(F)cc2)cc1 | 7 | 15
Cc1nn(CCCC(=O)NC(C)C)c(=O)c2nccn12 | -9 | -4
CO[C@@H]1[C@@H](OC(N)=O)[C@@H](O)C(Oc2ccc3c(O)c(NC(=O)c4ccc(O)c(CC=C(C)C)c4)c(=O)oc3c2C)OC1(C)C (stereo partly drawn) | -1 | -7
CCOC(=O)C1=C(C)N(c2ccccc2)C(=O)NC1c1ccccc1F (stereo not drawn) | -4 | -11
CC(C)c1noc(C2CCCN(C(=O)c3cnnn3-c3ccccc3)C2)n1 (stereo not drawn) | 0 | -2
CC(C)(C)C(=O)C(O)C(C)(C)C (stereo not drawn) | -4 | -5
COc1ccc(-c2cc(=O)n(CC(=O)Nc3ccccn3)cn2)cc1 | 9 | 3
C=CCN(C(=O)C(C)Oc1ccccc1)c1nc(C(=O)OCC)cs1 (stereo not drawn) | -1 | 19
CSc1ccc(C=Cc2nc3cc(Cl)ccc3o2)cc1 | 17 | 15
CCc1nc2ccc(C(=O)Nc3ccc4c(c3)OCC(=O)N4)cn2c1N(CC)CCN(C)C | -8 | -12
O=S(=O)(c1ccc2c(c1)OCCO2)N1CCC(N2CCCCC2)CC1 | 8 | 5
Cc1cccc(NC(=O)CN(C)C(=O)c2cc(=O)c3ccccc3o2)c1C | 2 | 2
Cc1nc(CCNC(=O)Cc2ccc(Cl)cc2Cl)cs1 | 0 | -3
Cc1ccc2c(c1)C(=O)NC1(CCN(C(=O)C3CCC3)CC1)N2 | 15 | 25
CCN(CC)c1ncccc1CNC(=O)c1ccc2oc(=O)n(C)c2c1 | 2 | 0
C=CCN1CCc2cc(OC)c(OC)cc2C1CNC(=O)C1CCCC1 (stereo not drawn) | 9 | 9
O=C(c1ccc(F)cc1)N(CCCn1ccnc1)c1nc2c(Cl)cccc2s1 | -14 | -22
Cc1ccc(CSc2nnc(CCC(=O)O)c(=O)[nH]2)cc1 | 12 | 5
CC(NC(=O)CCc1nc2sc3c(c2c(=O)[nH]1)CCC3)c1ccncc1 (stereo not drawn) | 6 | 4
C=CCN(Cc1ccccc1OC)C(=O)Cc1ccncc1 | 8 | -1
c1ccc2oc(C3=NCCN3)cc2c1 | 2 | -7
CCn1cc(C(=O)N2CCN(c3ccc(OC)cc3)CC2)c2nn(-c3ccccc3)c(=O)c-2c1 | 4 | 2
COC(=O)C[C@H]1[C@]2(C)C[C@]34OC5(C)O[C@]6(C7C(C(C)=O)C(=O)OC(c8ccoc8)[C@]7(C)CC[C@]6(O5)[C@@]13C)C(O)[C@]4(O)[C@H]2O (stereo partly drawn) | -13 | -15
O=C(CCCc1cccs1)N1CCC2(CCCNC2)C1 (stereo not drawn) | 4 | 3
CCc1cc(N(C)CCc2noc(C)n2)nc(N2CCOCC2)n1 | -19 | -16
CC(C(=O)Nc1cccc(C#N)c1)N(C)Cc1ccco1 (stereo not drawn) | 9 | 7
CNC(=O)c1nnc2n1CCN(C(=O)c1ccc(C(C)C)cc1)C2 | 6 | 3
COc1ccc(CN(C(=O)C2CCC2)C2CC2)cc1OS(C)(=O)=O | 8 | 11
N#CCCN(CCC#N)CN1C(=O)CCC1=O | 0 | 34
CCc1nc2ccc(C(=O)NCCN(C)C)cn2c1N(C=O)CC | -5 | -8
COc1ccc(-c2nnc3ccc(SCC(=O)Nc4ccc(C)cc4)nn23)cc1OC | 15 | 12
COc1ccccc1OCCCOc1ccccc1F | 2 | 14
CCN(Cc1ccncc1)C(=O)CC1(CC(=O)O)CCCC1 | 4 | 2
CC(C)NC(=O)c1cc(NC(=O)c2cccc3ccccc23)ccc1N1CCC(Cc2ccccc2)CC1 | 29 | 28
CC(=O)O/N=C1/CCc2nonc2/C1=N/Nc1ccccc1 | 13 | 12
Cc1cc(C(=O)N=c2sc3cc(F)ccc3n2C)nn1C | 8 | 4
CCCCNC(=O)C1(C)CCCCN1C(=O)c1cccc2c1OCCO2 (stereo not drawn) | 1 | -1

Not all compounds are listed; rates above refer to the full screens.
